Source: PubChem (Broad Institute)
FGF22 binding = binders of recombinant human FGF22 by thermal shift; calls only at 9.99 µM; AID 651658; 340,000 compounds, 1.5% hits; Q9HCT0; SYPRO orange fluorescence; percent of sucrose octasulfate shift, DMSO zero;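 active = melting point raised past a set limit in the mean and every replicate; three in four hits are not shown here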
Target sequence (Q9HCT0 whole entry, looked up): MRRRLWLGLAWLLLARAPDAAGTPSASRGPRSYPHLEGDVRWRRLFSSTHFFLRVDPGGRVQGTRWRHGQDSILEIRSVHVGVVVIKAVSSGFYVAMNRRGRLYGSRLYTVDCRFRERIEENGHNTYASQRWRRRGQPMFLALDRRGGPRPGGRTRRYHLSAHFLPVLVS
Calls only; i = inactive; + = active, no number.

FGF22 binding | canonical_smiles
i | CC(=O)N(C)C[C@H]1Oc2ncc(C#CC(C)(C)O)cc2C(=O)N([C@H](C)CO)C[C@@H]1C
i | C[C@H]1CN([C@@H](C)CO)C(=O)c2cc(NC(=O)Nc3ccccc3)ccc2O[C@H]1CN(C)C
+ | COCC(=O)N1[C@H](CO)[C@H]2c3ccccc3NC[C@H]21
i | CC(=O)N[C@@H]1CC[C@@H](CCNC(=O)C2CCC2)O[C@H]1CO
i | Cc1ccccc1S(=O)(=O)N(C)C[C@@H]1OCc2ccccc2-c2c(n(C)c3ccccc23)C(=O)N([C@@H](C)CO)C[C@H]1C
i | CC(C)NC(=O)N1CC2(C1)[C@H](c1ccccc1)[C@H](CO)N2Cc1cncnc1
i | COC(=O)[C@H]1[C@H](CO)[C@H]2Cn3c(cccc3=O)[C@H]2N1C(=O)C1CC1
i | CC(=O)N1[C@H](CO)[C@@H](c2ccccc2)[C@H]1CN(C)C(=O)CN1CCOCC1
i | Cc1ccc(S(=O)(=O)N(C)C[C@H]2Oc3cc(C#Cc4ccncc4)ccc3S(=O)(=O)N([C@@H](C)CO)C[C@H]2C)cc1
i | CO[C@@H]1CN(C)C(=O)c2cc(NC(=O)Cc3ccccc3)ccc2OC[C@@H](C)N(C)C[C@H]1C
i | C[C@H](CO)N1C[C@H](C)[C@H](CN(C)C(=O)NC2CCCC2)Oc2ncc(-c3cccc(C(F)(F)F)c3)cc2C1=O
i | O=C(c1ccccc1)N1[C@@H](CO)[C@@H](c2ccccc2)C12CN(CCC(F)(F)F)C2
i | C[C@@H]1CN([C@H](C)CO)C(=O)c2cc(/C=C/c3ccccc3)cnc2O[C@@H]1CN(C)Cc1cccc(C(=O)O)c1
i | CC(C)NC(=O)N(C)C[C@H]1Oc2ncc(C#CC3CC3)cc2C(=O)N([C@H](C)CO)C[C@H]1C
i | CN(C)C(=O)C[C@H]1C[C@H]2c3cc(NC(=O)Nc4ccccc4F)ccc3O[C@H]2[C@@H](CO)O1
i | COCC(=O)N(C)C[C@H]1Oc2ncc(C#C[C@@H](C)O)cc2C(=O)N([C@@H](C)CO)C[C@@H]1C
i | C[C@@H]1CN([C@H](C)CO)C(=O)c2cc(NS(C)(=O)=O)ccc2O[C@@H](C)CCCCO[C@@H]1CN(C)S(C)(=O)=O
i | C[C@@H]1CN([C@H](C)CO)C(=O)c2cc(NC(=O)Nc3ccccc3)ccc2O[C@H]1CN(C)C(=O)Nc1ccc(F)cc1
i | COCC(=O)Nc1ccc2c(c1)C(=O)N(C)[C@H]1CC[C@@H](CC(=O)NCc3ccccc3F)O[C@@H]1CO2
i | C[C@H](CO)N1C[C@H](C)[C@H](CN(C)C(=O)c2ccccc2)Oc2cc(C#CC3CC3)ccc2S1(=O)=O
i | O=C(C[C@H]1CC[C@@H](NC(=O)c2ccccc2)[C@@H](CO)O1)Nc1ccc(-c2ccccc2)cc1
i | CCC(=O)N1CC[C@@H]2[C@H]1c1cc(C#Cc3cccc(F)c3)ccc1N(C)[C@H]2CO
i | C[C@@H]1CCCCO[C@H](CN(C)C)[C@H](C)CN([C@H](C)CO)C(=O)c2cc(NC(=O)Cc3ccccc3)ccc2O1
i | COc1ccc(NC(=O)N(C)C[C@H]2Oc3ccc(NS(C)(=O)=O)cc3C(=O)N([C@@H](C)CO)C[C@H]2C)cc1
i | COc1ccc(CN(C)C[C@H]2Oc3ccc(NC(=O)Nc4cccc5ccccc45)cc3C(=O)N([C@H](C)CO)C[C@@H]2C)cc1
i | C[C@H]1CN([C@@H](C)CO)C(=O)c2cc(C#CCN(C)C)cnc2O[C@@H]1CN(C)Cc1ccc2c(c1)OCO2
i | C[C@@H]1CCCCO[C@@H](CN(C)C(=O)Nc2ccc3c(c2)OCO3)[C@H](C)CN([C@@H](C)CO)C(=O)c2cc(NC(=O)C3CCCCC3)ccc2O1
i | O=C(N[C@H]1C=C[C@@H](CC(=O)N2CCCCC2)O[C@@H]1CO)c1ccc2c(c1)OCO2
i | CCC(=O)Nc1ccc2c(c1)C(=O)N(C)C[C@@H](OC)[C@@H](C)CN(C(=O)c1ccc(F)cc1)[C@@H](C)CO2
i | O=C(NCC[C@@H]1CC[C@@H](NC(=O)C2CCCCC2)[C@H](CO)O1)c1cc(Cl)cc(Cl)c1
i | CCCN1C[C@@H](C)[C@H](OC)CN(C)C(=O)c2ccc(NC(=O)c3ccccc3)cc2OC[C@@H]1C
i | C[C@@H]1CCCCO[C@H](CN(C)S(=O)(=O)c2cccs2)[C@H](C)CN([C@@H](C)CO)C(=O)c2cc(NC(=O)Nc3ccc4c(c3)OCO4)ccc2O1
i | Cc1noc(C)c1NC(=O)Nc1ccc2c(c1)CC(=O)N([C@H](C)CO)C[C@@H](C)[C@@H](CN(C)S(=O)(=O)c1ccc(Cl)cc1)O2
i | CC(C)NC(=O)N[C@H]1C=C[C@H](CC(=O)O)O[C@H]1CO
i | CN1C(=O)c2cc(NC(=O)c3cccc(F)c3)ccc2OC[C@H]2O[C@H](CC(=O)N3CCc4ccccc4C3)CC[C@@H]21
i | C[C@@H]1CN([C@@H](C)CO)C(=O)c2cc(C#CC3CC3)cnc2O[C@H]1CN(C)Cc1ccccn1
i | C[C@H]1CN([C@@H](C)CO)C(=O)c2cc(NC(=O)Nc3ccc(C(F)(F)F)cc3)ccc2O[C@@H]1CN(C)Cc1ccc(C(F)(F)F)cc1
i | C[C@H](CO)N1C[C@H](C)[C@@H](CN(C)Cc2ccncc2)Oc2ccc(NS(=O)(=O)c3cn(C)cn3)cc2CC1=O
i | CC(C)NC(=O)N(C)C[C@@H]1Oc2ccc(NC(=O)Nc3ccc(F)cc3)cc2C(=O)N([C@@H](C)CO)C[C@H]1C
i | C[C@H](CO)N1C[C@H](C)[C@H](CN(C)CC2CC2)Oc2ccc(NC(=O)Nc3cccc4ccccc34)cc2CC1=O
i | CO[C@@H]1CN(C)C(=O)c2ccc(NC(=O)c3ccc(F)cc3)cc2OC[C@H](C)NC[C@H]1C
i | CC(C)CN(C[C@H]1N[C@H](CO)[C@@H]1c1ccccc1)C(=O)CN(C)C
i | C[C@@H]1CN([C@H](C)CO)S(=O)(=O)c2ccc(C3=CCCCC3)cc2O[C@H]1CN(C)C(=O)Nc1ccc2c(c1)OCO2
i | C[C@@H]1CN([C@@H](C)CO)S(=O)(=O)c2ccc(C3=CCCC3)cc2O[C@H]1CN(C)CC1CC1
i | COc1ccc(NC(=O)N(C)C[C@@H]2Oc3ccc(NS(C)(=O)=O)cc3C(=O)N([C@@H](C)CO)C[C@@H]2C)cc1
i | C[C@H]1CN([C@@H](C)CO)S(=O)(=O)c2ccc(-c3cccc(C#N)c3)cc2O[C@H]1CN(C)Cc1ccccn1
i | C[C@H]1CN([C@@H](C)CO)S(=O)(=O)c2ccc(Br)cc2O[C@@H]1CN(C)Cc1ccncc1
i | COCC(=O)Nc1ccc2c(c1)OC[C@H](C)N(CCc1ccccc1)C[C@H](C)[C@H](OC)CN(C)C2=O
i | C[C@@H]1CCCCO[C@@H](CN(C)C(=O)CCC(F)(F)F)[C@@H](C)CN([C@H](C)CO)C(=O)c2cc(NC(=O)CCCN(C)C)ccc2O1
i | C[C@H](CO)N1C[C@H](C)[C@@H](CN(C)Cc2ccccc2)Oc2cc(/C=C/c3ccccc3)ccc2S1(=O)=O

Further results.
FGF22 binding | canonical_smiles
i | O=S(=O)(Cc1ccccc1)NCC[C@H]1CC[C@@H](NS(=O)(=O)c2ccccc2)[C@H](CO)O1
i | COc1ccc(-c2cnc3c(c2)C(=O)N([C@H](C)CO)C[C@H](C)[C@@H](CN(C)C(=O)Cc2ccncc2)O3)cc1
i | Cc1noc(C)c1NC(=O)Nc1cccc2c1O[C@@H](CN(C)C(=O)Nc1ccc3c(c1)OCO3)[C@H](C)CN([C@H](C)CO)C2=O
i | O=C(NC[C@@H]1N[C@@H](CO)[C@H]1c1ccccc1)C1CCCC1
i | Cc1ccc(S(=O)(=O)Nc2ccc3c(c2)C(=O)N([C@@H](C)CO)C[C@H](C)[C@@H](CN(C)C(=O)NC2CCCCC2)OCCCC[C@H](C)O3)cc1
i | O=C(C1CC1)N1C[C@H]2[C@@H](c3ccccc31)[C@@H](CO)N2Cc1ccccc1Cl
i | CCCN(CCC)Cc1cc(=O)oc2ccccc12
i | CC(C)C#Cc1cnc2c(c1)C(=O)N([C@H](C)CO)C[C@H](C)[C@@H](CN(C)C(=O)Nc1ccccc1F)O2
i | C[C@H]1CN([C@@H](C)CO)C(=O)c2cc(NC(=O)Nc3ccc4c(c3)OCO4)ccc2O[C@H]1CN(C)S(=O)(=O)c1cn(C)cn1
i | COc1ccc(S(=O)(=O)Nc2ccc3c(c2)C(=O)N([C@H](C)CO)C[C@H](C)[C@H](CN(C)C(=O)Cc2ccccc2)OCCCC[C@@H](C)O3)cc1
i | C[C@@H]1CN([C@@H](C)CO)C(=O)c2cccc(NC(=O)c3cnccn3)c2O[C@H]1CN(C)Cc1ccc2c(c1)OCO2
i | COc1ccc(S(=O)(=O)Nc2cccc3c2O[C@@H](CN(C)C(=O)Nc2ccccc2)[C@@H](C)CN([C@@H](C)CO)C3=O)cc1
i | CN1C(=O)c2cc(NC(=O)C3CCOCC3)ccc2OC[C@@H]2O[C@H](CC(=O)NCC3CC3)CC[C@@H]21
i | C[C@@H]1CCCCO[C@@H](CN(C)Cc2ccccc2)[C@H](C)CN([C@@H](C)CO)C(=O)c2cc(NC(=O)Cc3ccccc3)ccc2O1
i | COc1ccccc1NC(=O)N1C[C@@H]2[C@H](c3ccccc31)[C@H](CO)N2C(=O)C1CC1
i | CC(C)NC(=O)N(C)C[C@@H]1OCCCC[C@H](C)Oc2ccc(NC(=O)c3ccccc3)cc2C(=O)N([C@@H](C)CO)C[C@H]1C
i | O=C(C[C@H]1C[C@@H]2c3cc(NC(=O)Nc4ccc(F)cc4)ccc3O[C@@H]2[C@@H](CO)O1)NCC(F)(F)F
i | C/C=C/c1ccc2c(c1)O[C@H](CN(C)C(=O)CN1CCOCC1)[C@@H](C)CN([C@H](C)CO)S2(=O)=O
i | C[C@H](CO)N1C[C@H](C)[C@H](CN(C)S(=O)(=O)c2ccc(F)cc2)Oc2ccc(NC(=O)CCCN(C)C)cc2C1=O
i | COc1ccc(-c2ccc3n(c2=O)C[C@@H]2[C@@H](CO)[C@H](C(=O)NC4Cc5ccccc5C4)N[C@H]32)cc1
i | C[C@H](CO)N1C[C@H](C)[C@@H](CN(C)C(=O)Nc2cccc(F)c2)OCc2ccccc2-c2c(n(C)c3ccccc23)C1=O
i | Cc1noc(C)c1S(=O)(=O)N(C)C[C@H]1OCCCC[C@@H](C)Oc2ccc(NC(=O)NC(C)C)cc2C(=O)N([C@@H](C)CO)C[C@H]1C
i | C[C@@H]1CN([C@H](C)CO)S(=O)(=O)c2ccc(C#Cc3ccccc3F)cc2O[C@@H]1CN(C)CC1CCOCC1
i | C[C@@H]1CN([C@H](C)CO)C(=O)c2cccc(NC(=O)Nc3ccc(C(F)(F)F)cc3)c2O[C@@H]1CN(C)Cc1ccc(C(=O)Nc2ccccc2N)cc1
i | COc1ccc2c3c([nH]c2c1)[C@H](CO)N(Cc1ccncc1)CC31CN(S(C)(=O)=O)C1
i | CS(=O)(=O)N1CCCCN2[C@@H](CO)[C@H](c3ccc(C#Cc4ccccn4)cc3)[C@@H]2C1
i | COc1ccc(S(=O)(=O)N(C)C[C@@H]2Oc3c(NC(=O)c4ccc(-c5nccs5)cc4)cccc3C(=O)N([C@H](C)CO)C[C@H]2C)cc1
i | Cc1noc(C)c1NC(=O)N(C)C[C@H]1Oc2ccc(NC(=O)NC(C)C)cc2C(=O)N([C@@H](C)CO)C[C@H]1C
i | COc1ccccc1-c1cn(CC[C@@H]2CC[C@H](NC(=O)C3CCCCC3)[C@@H](CO)O2)nn1
i | O=C(C[C@H]1C=C[C@H](NC(=O)C2CC2)[C@@H](CO)O1)NCc1ccncc1
i | CC(=O)N(C)C[C@@H]1Oc2ncc(-c3ccc(C)cc3)cc2C(=O)N([C@@H](C)CO)C[C@@H]1C
i | O=C(c1ccccc1F)N1C[C@@H]2[C@H](c3ccccc31)[C@H](CO)N2C(=O)c1ccccc1
i | C[C@@H]1CN([C@H](C)CO)C(=O)c2cc(NC(=O)NC3CCCCC3)ccc2O[C@@H](C)CCCCO[C@H]1CN(C)S(C)(=O)=O
i | Cc1ccc(S(=O)(=O)Nc2ccc3c(c2)C(=O)N([C@H](C)CO)C[C@H](C)[C@@H](CN(C)S(C)(=O)=O)O3)cc1
i | C/C=C/c1cnc2c(c1)C(=O)N([C@H](C)CO)C[C@H](C)[C@@H](CN(C)S(=O)(=O)c1cccs1)O2

Part of the list above, with bars between the fields.
canonical_smiles | FGF22 binding
C[C@@H]1CN([C@H](C)CO)S(=O)(=O)c2ccc(C#Cc3ccccc3F)cc2O[C@@H]1CN(C)CC1CCOCC1 | i
C[C@@H]1CN([C@H](C)CO)C(=O)c2cccc(NC(=O)Nc3ccc(C(F)(F)F)cc3)c2O[C@@H]1CN(C)Cc1ccc(C(=O)Nc2ccccc2N)cc1 | i
COc1ccc2c3c([nH]c2c1)[C@H](CO)N(Cc1ccncc1)CC31CN(S(C)(=O)=O)C1 | i
CS(=O)(=O)N1CCCCN2[C@@H](CO)[C@H](c3ccc(C#Cc4ccccn4)cc3)[C@@H]2C1 | i
COc1ccc(S(=O)(=O)N(C)C[C@@H]2Oc3c(NC(=O)c4ccc(-c5nccs5)cc4)cccc3C(=O)N([C@H](C)CO)C[C@H]2C)cc1 | i
Cc1noc(C)c1NC(=O)N(C)C[C@H]1Oc2ccc(NC(=O)NC(C)C)cc2C(=O)N([C@@H](C)CO)C[C@H]1C | i
COc1ccccc1-c1cn(CC[C@@H]2CC[C@H](NC(=O)C3CCCCC3)[C@@H](CO)O2)nn1 | i
O=C(C[C@H]1C=C[C@H](NC(=O)C2CC2)[C@@H](CO)O1)NCc1ccncc1 | i
CC(=O)N(C)C[C@@H]1Oc2ncc(-c3ccc(C)cc3)cc2C(=O)N([C@@H](C)CO)C[C@@H]1C | i
O=C(c1ccccc1F)N1C[C@@H]2[C@H](c3ccccc31)[C@H](CO)N2C(=O)c1ccccc1 | i

A section taken from the entries so far:
FGF22 binding | canonical_smiles
i | CS(=O)(=O)N1CCCCN2[C@@H](CO)[C@H](c3ccc(C#Cc4ccccn4)cc3)[C@@H]2C1
i | COc1ccc(S(=O)(=O)N(C)C[C@@H]2Oc3c(NC(=O)c4ccc(-c5nccs5)cc4)cccc3C(=O)N([C@H](C)CO)C[C@H]2C)cc1

The list is partial; rates above refer to the full screens.
